# From PubChem BioAssay
# Marburg entry inh – inhibitors of Marburg virus binding or cell entry. Marburg virus pseudotyped entry inhibition, cell reporter; control for the full effect not named in the record; about a third of the inactives were read at about 46 µM. Potency, µM (doses to about 37.8 µM), inactives show at the highest dose activity change, negative = inhibition, usual class: inhibitors. 300,000 compounds, 1.8% hits. AID 540276; active = well fitted inhibition curve with a large enough effect; inconclusive = small, poorly fitted or top-dose-only effect, or effect the other way; inactive = flat fitted curve, though single readings scatter; tested in HEK293 cells; about a fifth of its hits are not listed in these tables; note: % is set by controls: 0 for no effect and ±100 for the full control effect; luciferase read-out
# NS1 inh – influenza NS1 inhibition; S. cerevisiae slowed by influenza A NS1, growth recovery by OD600; Potency, µM (highest dose often 46.1 µM), inactives show at the top dose activity, positive = more growth; 270,000 compounds, 0.4% hits; active means well fitted rising curve with a large enough effect; inconclusive means small, poorly fitted or top-dose-only effect; inactive means no such curve, though single readings can be large or run the other way; note: nearly all actives have a fitted effect of over 50% in size
#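 Read-out: OD600 growth recovery of NS1-expressing budding yeast. Cells grown overnight at 30C in -URA glucose medium, washed, resuspended and diluted 1:100 in 2% galactose assay medium, pH 6.0. Same strain lacking NS1 served as positive control.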
# Cruzain noTriton – blocks cruzain activity in detergent-free assay; P25779; Potency, µM, for inactives: max response, negative = inhibition, most hits filed as inhibitors; AID 1476; purified cruzain, Z-FR-AMC fluorescence, no detergent; 200,000 compounds, 2.3% hits;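 note: plate controls were enzyme without inhibitor for no effect and buffer without enzyme for full effect; nearly all actives have a fitted effect of over 40% in size; top concentration of the series not given in the record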
# Target sequence (P25779 123-467 limits assumed): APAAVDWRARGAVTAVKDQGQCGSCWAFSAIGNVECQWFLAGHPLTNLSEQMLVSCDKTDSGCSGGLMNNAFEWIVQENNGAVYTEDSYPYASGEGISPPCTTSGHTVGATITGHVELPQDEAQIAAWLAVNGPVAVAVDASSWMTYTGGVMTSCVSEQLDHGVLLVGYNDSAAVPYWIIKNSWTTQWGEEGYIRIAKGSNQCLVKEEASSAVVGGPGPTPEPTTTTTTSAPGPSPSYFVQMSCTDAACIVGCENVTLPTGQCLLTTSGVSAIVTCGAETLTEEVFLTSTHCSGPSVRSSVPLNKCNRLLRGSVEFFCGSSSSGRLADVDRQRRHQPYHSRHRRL
#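 Detergent-free condition (0.00005% Triton X-100) in acetate buffer pH 5.5 with DTT. 1.5 nM enzyme and compound were pre-mixed 15 min, then 2 uM Z-FR-AMC substrate added; reaction progress from fluorescence change between first and third reads (60 s).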
# LASV entry inh – Lassa virus entry inhibition; Lassa virus pseudotype entry inhibition, cell reporter; control for the full effect not named in the record; Potency, µM (top dose mostly 37.9 µM), for inactives: at the top dose activity change, negative = inhibition, usual class: inhibitors; 300,000 compounds, 1.2% hits; active means well fitted inhibition curve with a large enough effect; inconclusive means small, poorly fitted or top-dose-only effect, or effect the other way; inactive means flat fitted curve, though single readings scatter; tested in HEK293 cells; note: % is set by controls: 0 for no effect and ±100 for the full control effect; nearly all actives have a fitted effect of over 50% in size; luciferase read-out
# RE007 growth inh – less growth of the S. pombe RE007 Vpr strain; S. pombe RE007 Vpr strain, BacTiter-Glo ATP luminescence, 24 h; control for the full effect not named in the record; Potency, µM (top dose mostly 92.2 µM), for the others: at the highest dose activity change, negative = less growth; 360,000 compounds, 0.21% hits; AID 651644; active = well fitted falling curve with a large enough effect; inconclusive = small, poorly fitted or top-dose-only effect; inactive = no such curve, though single readings can be large or run the other way;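 note: % is set by controls: 0 for no effect and ±100 for the full control effect; nearly all actives have a fitted effect of over 50% in size; the assay follows cell death caused by Vpr and the record does not say whether a fall means rescue or toxicity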
#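 Fission yeast RE007 carrying one integrated HIV-1 vpr copy, seeded at OD 0.01 in PMG+AL medium with 23 nL pinned compound. Grown 24 h at 30 degrees; viability read by BacTiter-Glo luminescence after 5 min.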
# Cruzain inh Det – inhibitors of Trypanosoma cruzi cruzain with detergent; purified cruzain, Z-FR-AMC fluorescence, 0.01% Triton; Potency, µM, for the others: max response, negative = inhibition, most hits filed as inhibitors; 200,000 compounds, 0.43% hits; AID 1478;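 note: plate controls were neutral wells for no effect and buffer without enzyme for full effect; nearly all actives have a fitted effect of over 40% in size; top concentration of the series not given in the record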
#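 Cruzain (1.5 nM) preincubated 15 min at RT with compound in 100 mM sodium acetate pH 5.5, 5 mM DTT, 0.01% Triton X-100. Reaction started with 2 uM Z-FR-AMC; AMC fluorescence (ex 360/em 450 nm) change over 60 s gave rate.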
# 2A StopGo – FMDV 2A StopGo reporter, luciferase signal; 410,000 compounds, 1.2% hits; Potency, µM (highest dose often 57.9 µM), for the others: top-dose signal change, negative = less light; human cells with a luciferase reporter of 2A StopGo recoding; control for the full effect not named in the record; active = well fitted falling curve with a large enough effect; inconclusive = small, poorly fitted or top-dose-only effect; inactive = no such curve, though single readings can be large or run the other way; tested in HEK293T cells; note: % is set by controls: 0 for no effect and ±100 for the full control effect; nearly all actives have a fitted effect of over 45% in size; luciferase light after 4 h
# SARS PLpro yeast – blocks SARS-CoV papain-like protease in a yeast assay | S. cerevisiae expressing SARS-CoV PLpro, growth rescue; control for the full effect not named in the record | 330,000 compounds, 0.19% hits | Potency, µM (titrated, usually from 32.9 µM), inactives show at the top dose activity, positive = growth rescue | AID 485353; active means well fitted rising curve with a large enough effect; inconclusive means small, poorly fitted or top-dose-only effect; inactive means no such curve, though single readings can be large or run the other way; note: 0% is about no effect; nearly all actives have a fitted effect of over 55% in size; growth read by luminescence after 48 h
# Numbers without * were called inactive; ? = inconclusive; . = not tested or not shown; & = joins results of further samples; [ ] = another dose, or the depositor's remark. Unless noted, calls come from the whole dose curve; as a rule, active = well fitted curve in the direction sought with a large enough effect; inconclusive = small, poorly fitted or top-dose-only effect, or another doubt; inactive = no such curve, though single readings can be large; an effect the other way counts as inactive or inconclusive. Potency is the fitted concentration of half-maximal effect.
SMILES,Marburg entry inh,NS1 inh,Cruzain noTriton,LASV entry inh,RE007 growth inh,Cruzain inh Det,2A StopGo,SARS PLpro yeast
CCOc1ccc(NC(=O)C2=C(C)C(=O)OC23CCC(C)CC3)cc1 (stereo not given),-1%[46.1 µM],-4%,?,19%[46.1 µM],-3%,-4.5%&-4.6%,?,-7%
c1ccc2c(c1)ncn2Cc1nnc2sc(-c3ccc4c(c3)OCO4)nn12,?,-42%,1%,-1%,-11%,-6.5%,-9%,3%
N#Cc1ccc(C(=O)Nc2cccc(S(=O)(=O)NC3=NCCC3)c2)cc1,-30%[46.1 µM],.,.,6%,-4%,.,-12%,6%
CCCc1ccc(S(=O)(=O)N2CCN(C(C)C(=O)NC3CCCC3)CC2)cc1 (stereo not given),-1%,.,.,?,0%,.,-12%,-4%
O=S(=O)(NCc1csc(-c2cccs2)n1)c1cccc(C(F)(F)F)c1,.,-6%,.,.,-8%,.,29%,-2%
O=C(c1cccc(C(F)(F)F)c1)C1CCCN(C(=O)CN2CCCC2=O)C1 (stereo not given),0%[46.1 µM],-2%,.,0%[46.1 µM],2%,.,-5%,1%
COc1ccc(OC(=O)c2cccc(S(=O)(=O)N3CCCC3)c2)cc1,0%,-16%,-5%,-6%,-5%,-6.3%,-3%,-3%
Cc1ccc(-c2nn(-c3ccccc3)cc2NC(=O)c2ccccc2)cc1,23%,-2%,?,12%,0%,-6.2%,14%,-19%
Cc1ccc(S(=O)(=O)N2CCN(C(=O)NCc3ccc(C(=O)O)cc3)CC2)cc1,?,12%,.,13%[46.1 µM],-4%,.,3%,6%
C(=C\c1ccco1)/C=N/n1cnnc1,15%[46.1 µM],-1%,-27%,3%,0%,-11%,12%,8%
CC(C)C[C@@H](C(=O)NCc1ccco1)N1C(=O)N2CCc3c([nH]c4ccccc34)[C@@]2(C)C1=O,.,-9%,.,.,-12%,.,-26%,-2%
CCOc1ccc(NC(=O)N(CCC(C)C)C2CCN(C(C)=O)CC2)cc1,22%,1%,5%,102%[14.3 µM],1%,9.4%,39%[activator],14%
COc1cc2oc(-c3ccc(O)cc3)cc(=O)c2c(O)c1OC,.,-5%,.,.,-6%,.,34%[activator],0%
CC(C)(C)c1ccc(/C=C2\Oc3cc(OC(=O)N4CCOCC4)ccc3C2=O)cc1,?,-4%,4%,8.9µM*,-9%,1.3%,?,6%
O=C(CSc1nnc(-c2ccc(Br)cc2)n1C1CCCCC1)N1CCCC1,15%&15%,-5%,19%,2%,5%,-0.5%,16%,-12%
Nc1cc(=O)[nH]c(SCC(=O)Nc2ccc3c(c2)CCC3)n1,10%[46.1 µM],.,.,?,5%,.,-5%,0%
Cc1ccc(/C=C/c2onc(C)c2S(=O)(=O)N2CCC(C(=O)Nc3cc(F)ccc3F)CC2)cc1,.,.,-8%,-1%[46.1 µM],.,-2.2%,-12%,.
COC(=O)c1ccc(C(=O)OC)c(NC(=O)CCC(=O)O)c1,-14%,5%,3%,15%,14%,-1.6%,.,2%
CCOc1cc(/C=C2\C(=N)N3N=C(C)SC3=NC2=O)ccc1OCCOc1cccc(OC)c1,.,12%,.,.,1%,.,-18%,-4%
CCOc1cc2c3c(c1)C1(Nc4ccccc4S1)C(=O)N3C(C)(C)CC2C (stereo not given),?,-60%,-4%,-30%,6%,-8.1%,-13%,-22%
Fc1cnc(Cl)nc1NC1CCCCC1,-4%,-1%,.,.,-17%,.,-11%,-2%
Fc1ccc(-c2cc(C(F)(F)F)nc(-n3cccn3)n2)cc1,3%,0%,.,.,-10%,.,-12%,-7%
COc1ccc(C(=O)CSc2nc(SC)ns2)cc1OC,-26%,-1%,2%,-16%,24%,-3.6%,-13%,.
Cc1cc(C(=O)OCC(=O)NCCCN2CCCC2=O)c2ccccc2n1,-4%,-3%,-2%,3%,8%,-1.7%,-27%,3%
Clc1ccc(Oc2cnc3ccccc3n2)cc1,-6%,9%,-1%,2%,-15%,-0.9%,26%,5%
CCOc1cc(C)c(S(=O)(=O)NCCCn2ccnc2)cc1C,.,-9%,.,.,8%,.,11%,-3%
C=CCOc1cccc(NC(=O)c2ccccc2SC)c1,0%,-6%,.,19%,?,.,2%,-1%
Cc1ccc(C(=O)NC(=S)Nc2ccc(N3CCN(C(=O)c4ccco4)CC3)cc2)cc1,9%,3%,.,-6%,10%,.,?,-7%
COc1ccc(C2c3c(n(C)c4ccccc34)C(=O)N2CC(=O)Nc2ccc(C)c(Cl)c2)cc1 (stereo not given),.,.,?,-4%[46.1 µM],.,-4.2%,-14%,.
Cc1ccc(-c2cc(C(=O)N3CC(C)OC(C)C3)c3ccccc3n2)o1 (stereo not given),9%,.,.,14%,1%,.,-6%,-4%
O=C(COc1ccc(Cl)cc1Cl)Nc1c(-c2cccs2)nc2ccccn12,-19%,-15%,-3%,11%,-10%,0.0%,-11%,-8%
COc1cccc(CN(Cc2cccnc2)S(=O)(=O)c2ccc(-n3cnnn3)c(C)c2)c1,-16%,-9%,15%,-4%,8%,0.3%,.,-4%
Cc1cccc(C)c1NC(=O)C1CCN(S(C)(=O)=O)CC1,-7%[46.1 µM],17%,.,17%[46.1 µM],-15%,.,-11%,-1%
CCOC(=O)c1cc(S(=O)(=O)NCc2ccccc2)[nH]n1,.,.,-6%,5%[46.1 µM],.,0.3%,-6%,.
Cc1cc(C)cc(NC(=O)N2C3CCCC2CC(NC(=O)C2CC2)C3)c1 (stereo not given),5%[46.1 µM],6%,.,-3%[46.1 µM],-11%,.,-1%,0%
O=C(Cn1cncc1-c1ccc([N+](=O)[O-])cc1)Nc1cccc2ccccc12,-11%,15%,?,-13%,15%,-5.4%,-14%,11%
CCOc1ccc(N(CC(=O)NC2CCCCC2)C(=O)CSc2nnc(COc3ccccc3)o2)cc1,-9%[46.1 µM],0%,?,-5%,-15%,-7.7%,-18%,-9%
Cc1cc(C)c2oc(-c3ccc(C)c(NC(=O)/C=C/c4ccco4)c3)nc2c1,5%[46.1 µM],.,3%,25%[46.1 µM],.,-5.5%,-1%,.
C=CCOc1ccc(CN(C)CC(=O)Nc2ccccc2[N+](=O)[O-])cc1,0%[46.1 µM],.,.,-8%,0%,.,-15%,-4%
COc1ccc(CNC(=S)Nc2ccc(-c3ccccc3)cc2)cc1,-30%[46.1 µM],.,.,?,-9%,.,45%[activator],-2%
O=C(CNC(=O)c1ccco1)OCC(=O)c1ccc2ccccc2c1,10%,-7%,-23%,15%,11%,-24%,-2%,-15%
C=CCNC(=S)Nc1ccc(N2CCOCC2)c(S(=O)(=O)Nc2ccccc2Cl)c1,0%[46.1 µM],.,.,?,-6%,.,74%[activator],4%
COCC(=O)N1CCc2ccc(NC(=O)c3ccccc3Cl)cc2C1,.,-4%,.,.,3%,.,11%,-3%
Cc1ccc(S(=O)(=O)N(C)c2ccc(C(=O)N3CCN(Cc4ccc5c(c4)OCO5)CC3)cc2)cc1,?,-110%,15%,?,-5%,5.2%,16µM*,7%
CCCc1cc(Nc2cccc(OCC)c2)n2ncnc2n1,-12%,-9%,17%,-7%,16%,-0.4%,0%,1%
O=C(OCn1nnc2ccccc2c1=O)c1ccc2c(=O)n3c(nc2c1)CCC3,1%,2%,20%,8%,-5%,-6.2%,.,-4%
FC(F)(F)c1nnc(-c2ccccc2)nc1N1CCOCC1,0%,-7%,-7%,4%,-13%,-1.8%,24%,1%
Cc1cc(CN(C)C(=O)CC2C(=O)NCCN2Cc2c(F)cccc2Cl)on1 (stereo not given),.,-3%,.,.,17%,.,-28%,-1%
Cc1cc(C)n(CC(=O)NC2CCCCC2)n1,4%,6%,0%,-3%,2%,0.6%,-18%,-1%
Cc1cc(C(=O)OCC(=O)Nc2cccc(S(=O)(=O)N(C)C)c2)c(C)o1,.,0%,.,.,-18%,.,-16%,1%
CCC(C)[C@H](NC(=O)Nc1ccc2c(c1)OCCO2)C(=O)O (stereo not given in full),1%,0%,-2%,19%,-17%,9.3%,.,0%
COc1ccc(-n2c(CNC(=O)COc3ccccc3)n[nH]c2=S)cc1,4%[46.1 µM],.,.,-2%[46.1 µM],-6%,.,30%[activator],-1%
O=C(c1ccccc1Br)N1CCN(c2ccccn2)CC1,-9%[46.1 µM],7%,.,9%[46.1 µM],8%,.,-15%,2%
COc1ccc(CN(C2CCCC2)S(=O)(=O)c2ccc(-n3cnnn3)cc2)cc1OC,-28%[46.1 µM],2%,-15%,2%,17%,-17%,?,2%
COc1ccc(-c2ccc(SCC(=O)N3CCN(c4ccccc4)CC3)nn2)cc1,-7%,8%,.,9%,24%,.,-13%,-1%
Cc1cc(NS(=O)(=O)c2ccc(Nc3nc(-c4sc(N)nc4C)cs3)cc2)no1,15%,?,?,-15%,-3%,-25%,-14%,2%
NC(=S)N/N=C1\CCOc2ccc(Cl)cc21,.,12%,.,.,-3%,.,-18%,1%
COc1ccc(S(=O)(=O)N2CCc3ccccc32)cc1C(=O)N1CCOCC1,-10%[46.1 µM],.,.,6%,-12%,.,-8%,3%
COc1ccccc1N(C)S(=O)(=O)c1ccc(C(=O)Nc2ncc(C)s2)cc1,-28%,.,.,?,30%,.,?,2%
COC(=O)c1ccccc1S(=O)(=O)Nc1ccc2cn[nH]c2c1,-14%[46.1 µM],5%,-7%,8%,-2%,-1.6%,20%,1%
# (next part)
SMILES,Marburg entry inh,NS1 inh,Cruzain noTriton,LASV entry inh,RE007 growth inh,Cruzain inh Det,2A StopGo,SARS PLpro yeast
COc1cccc(N2CCN(C(=O)c3nn(C)c4c3CSc3ccc(C)cc3-4)CC2)c1,.,.,?,-27%[46.1 µM],.,0.1%,-16%,.
Cc1ccccc1NC(=O)Cn1cnc2c1c(=O)n(C)c(=O)n2C,-10%,8%,14%,0%,15%,5.0%,9%,5%
Cc1cc([N+](=O)[O-])ccc1NC(=O)Nc1ccccc1F,0%[46.1 µM],-11%,.,20%[46.1 µM],10%,.,-15%,1%
Cc1[nH]nc(SCC(=O)Nc2cccc(O)c2)c1[N+](=O)[O-],-3%[46.1 µM],.,.,-15%[46.1 µM],1%,.,16%,2%
COc1cc(C(=O)Nc2nc(-c3ccc(Cl)cc3)c(C)s2)ccc1OCC(=O)Nc1ccc(F)cc1,?,7%,16µM*,10µM*,30%,-1.5%,28µM*,1%
